Source: PubChem
Sfp PPTase inh – Sfp phosphopantetheinyl transferase inhibition; Biochemical Sfp PPTase activity, qHTS; 310,000 compounds, 3.5% hits; Potency, µM, for inactives: max response, negative = inhibition, actives largely listed as inhibitors; active = well fitted inhibition curve with a large enough effect; inconclusive = small, poorly fitted or top-dose-only effect, or another doubt; inactive = no such curve, though single readings can be large or run the other way;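 also: the enzyme is Sfp with the accession as filed and its product quenches rhodamine fluorescence; potency is read from the fitted curve at half-maximal effect; 0% = enzyme reaction without inhibitor and -100% = no enzyme wells; top concentration of the series not given in the record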
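With Hepes-Na pH 7.6 buffer containing 10 mM MgCl2, Sfp (15 nM) modified BHQ-2-YbbR (12.5 uM) using rhodamine-CoA (5 uM). Two reads 30 minutes apart at 525/598 nm yielded each well's rate.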
Menin MLL FP FL – inhibitors of human menin-MLL interaction, wild-type MLL peptide; 290,000 tested, under 10 active; AID 1766; Fluorescence polarization, fluorescein-MLL peptide displacement from menin; FP activity change, % at 61.4 µM; inconclusive = falling polarisation curve, or a change in total fluorescence; inactive = total fluorescence flat and polarisation flat or rising; no compound was filed as active; the % refers to the polarisation; negative = inhibition;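 also: % of control where 0% means no effect; inhibitors lower the polarisation; unlabelled MLL peptide was the positive control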
gsp antagonist – gsp mutant antagonism. 340,000 compounds, 0.4% hits. gsp-mutant cells, cAMP HTRF, 30 min; control for the full effect not named in the record. Potency, µM (titrated, usually from 76.9 µM), without a hit: at the top dose activity change, negative = inhibition, usual class: inhibitors; active = falling curve of any shape with a large fitted effect; inconclusive = falling curve, mostly with a smaller effect; inactive = flat or rising curve; cell line not stated here;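 also: intracellular cAMP measured with PDE inhibitor Ro 20-1724 present during compound exposure; potency is read from the fitted curve at half-maximal effect; % is scaled to controls: 0 for no effect and ±100 for the full control effect; nearly all actives have a fitted effect of over 65% in size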
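HTRF cAMP read-out (cAMP-d2 plus anti-cAMP antibody-K in lysis buffer, 30 min RT). Before lysis, cells are exposed to compounds with […] for 30 min at 37C in DPBS containing Ca/Mg, BSA and Tween 20.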
gsp agonist – gsp mutant agonism. Potency, µM (highest dose often 76.9 µM), inactives show at the top dose activation (cAMP increase), hits mostly activators. 340,000 compounds, 0.13% hits. AID 624287. gsp mutant cells, cAMP HTRF, 30 min; control for the full effect not named in the record; active = well fitted activation curve with a large enough effect; inconclusive = small, poorly fitted or top-dose-only effect, or another doubt; inactive = no such curve, though single readings can be large or run the other way; cell line not stated here;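 also: phosphodiesterase inhibitor Ro 20-1724 added with compounds to block cAMP breakdown; potency is read from the fitted curve at half-maximal effect; nearly all actives have a fitted effect of over 60% in size; about a fifth of the inactives were tested at one dose only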
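Cells stably selected in G418 were plated at 2000/well, grown 16-24 hr, then given compounds in DMSO with the PDE inhibitor […] (300 uM solution added) for 30 min at 37C; cAMP was read by HTRF.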
TRPV1 potentiator – human TRPV1 potentiation; TRPV1-expressing cells, Fluo-8 calcium influx, capsaicin EC20 potentiation; host cell line not named in the record; control for the full effect not named in the record; potentiation, % at 8.33 µM; 320,000 compounds, 0.02% hits; active means potentiation above 80%; inconclusive means 30% to 80%; inactive means below 30%; also: 0% is about no effect
Target sequence (Q8NER1 whole entry, looked up): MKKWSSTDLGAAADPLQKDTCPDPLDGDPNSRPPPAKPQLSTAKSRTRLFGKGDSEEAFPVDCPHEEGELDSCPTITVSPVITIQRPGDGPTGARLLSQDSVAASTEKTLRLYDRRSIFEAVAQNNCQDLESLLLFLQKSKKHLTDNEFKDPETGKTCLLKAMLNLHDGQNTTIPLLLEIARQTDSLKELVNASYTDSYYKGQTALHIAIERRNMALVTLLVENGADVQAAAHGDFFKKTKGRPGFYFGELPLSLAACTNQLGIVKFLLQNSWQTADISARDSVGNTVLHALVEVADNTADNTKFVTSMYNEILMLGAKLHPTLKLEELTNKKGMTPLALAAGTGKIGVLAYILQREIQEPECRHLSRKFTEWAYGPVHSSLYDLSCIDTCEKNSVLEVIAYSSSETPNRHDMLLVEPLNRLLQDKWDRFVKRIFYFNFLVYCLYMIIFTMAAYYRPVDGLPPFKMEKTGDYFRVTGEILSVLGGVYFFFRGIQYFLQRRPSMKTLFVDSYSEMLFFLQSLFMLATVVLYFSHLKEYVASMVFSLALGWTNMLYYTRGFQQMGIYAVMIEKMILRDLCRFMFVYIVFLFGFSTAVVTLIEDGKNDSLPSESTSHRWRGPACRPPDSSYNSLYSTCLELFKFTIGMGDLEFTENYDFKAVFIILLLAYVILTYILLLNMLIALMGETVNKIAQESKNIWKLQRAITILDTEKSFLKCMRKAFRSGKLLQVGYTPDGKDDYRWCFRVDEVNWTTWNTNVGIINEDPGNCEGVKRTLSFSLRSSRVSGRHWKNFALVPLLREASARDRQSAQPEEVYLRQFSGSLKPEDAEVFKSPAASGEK
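TRPV1-expressing cells were cultured overnight at 35.5C and loaded with Fluo-8 calcium dye for 40 to 90 min at room temperature. After a 10 s baseline, compound was added and calcium influx was read kinetically for 3 min (ex 480/em 520 nm).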
ClpP mod – qHTS Assay for Activators of ClpP; purified B. subtilis ClpP, FRET peptide cleavage, 20 min; Potency, µM (series often up to 57.5 µM), inactives show at the highest dose activity change, negative = active; 340,000 compounds, 1.9% hits; active = well fitted falling curve with a large enough effect; inconclusive = small, poorly fitted or top-dose-only effect; inactive = no such curve, though single readings can be large or run the other way; also: potency is read from the fitted curve at half-maximal effect; the source files actives as falling curves though it sought activators and does not explain the sign; nearly all actives have a fitted effect of over 65% in size; many hits overshoot -100%
Target sequence (P80244 whole entry, looked up): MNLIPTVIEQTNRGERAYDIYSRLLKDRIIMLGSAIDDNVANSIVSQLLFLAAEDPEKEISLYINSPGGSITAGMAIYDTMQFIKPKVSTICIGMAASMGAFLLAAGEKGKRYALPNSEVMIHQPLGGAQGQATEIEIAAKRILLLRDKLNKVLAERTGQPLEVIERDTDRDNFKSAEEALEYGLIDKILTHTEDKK
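ClpP 10 microg/mL final, pH 8 Tris/KCl buffer with BSA, glycerol, Tween-20; compound pinned in; FRET-FV substrate; RT 20 min; Ex320/Em430; ΔFRET vs ADEP 5.8 microM, DMSO, no enzyme.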
TRPML1 inh – inhibitors of human TRPML1 channel | activity change, negative = inhibition, % (test concentration not listed) | 390,000 compounds, 0.02% hits | TRPML1-inducible cells, Ca2+ dye fluorescence, FDSS; active compounds read low; inhibition of EC80 agonist-evoked calcium signal | AID 624415; in the data active means activity change below about -50%; inconclusive means about -30% to -50%; inactive means above about -30%;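 also: stimulus is agonist 54-4 at its EC80 concentration; % is scaled to controls: 0 for no effect and ±100 for the full control effect; compound concentration not given in the record; the text of the record puts the active cut at -80%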
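Tet-induced TRPML1-DL cells loaded with Ca8 no-wash calcium dye were read kinetically on FDSS. Compound addition was followed by EC80 agonist 54-4 (4 uM final); inhibition was read over 110 s.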
Starred values were filed as active, the others as inactive; ? = inconclusive; nt = no result given; & = joins results of further samples; [ ] = remark or other dose.

Molecule	TRPML1 inh	TRPV1 potentiator	ClpP mod	Menin MLL FP FL	Sfp PPTase inh	gsp antagonist	gsp agonist
O=C(CNC(=S)N(Cc1ccccc1)Cc1cccnc1)NCCN1CCOCC1	-4.9	10.9	nt	-1.5	10.8%	18.7%	-5.2%[15.4 µM]
CC1=CC(C)C(/C=N/n2cnnc2)C(C)C1 (stereo not given)	2.2	9.3	0.5%	1.9	13.3%	-0.7%	-49.5%[inhibitor]
COC(=O)c1sccc1NC(=S)N1CCN(C)CC1	13.8	-2.7	-0.6%	-2.1	6.7%	7.1%	-25.2%
O=C(O)c1cccc(S(=O)(=O)Nc2cccc(S(=O)(=O)N3CCCC3)c2)c1	0.7	-9.2	-0.3%	nt	nt	1.4%	-36.6%[inhibitor]
Clc1ccc(OCc2nnc3n2CCCCC3)c(Cl)c1	0.4	-26.1	-0.3%	3.5	-4.9%	-4.1%	25.8%
COc1ccc2[nH]cc(C(=O)CN3CCN(C4CCCCC4)CC3)c2c1	-12.7	1.4	-3.6%	0.4	-5.4%	8.6%	0.5%
CCn1c(SCC(=O)NCc2ccccc2)nnc1C(CO)NC(=O)c1ccccc1 (stereo not given)	-6.8	6.4	-0.5%	nt	16.1%	7.4%	29.3%
CCn1c(SCC(=O)Nc2sc3c(c2C#N)CCCC3)nnc1-c1ccncc1	-0.1	8.7	-0.1%	2.4	-7.2%	14.9%	9.5%
CN1C(=O)/C(=N/OC(=O)c2ccccc2)c2ccccc21	-17.1	nt	0.7%	3.9	-8.8%	0.3%	8.6%
Cc1cccc(C)c1-n1nnnc1SCC(=O)N1CCNC1=O	7.9	-13.9	0.9%	nt	nt	11.2%	14.9%
CCCCCCNC(=O)C(=O)NCCc1ccc(Cl)cc1	10.8	5.0	nt	-4.8	-7.9%	1.7%	?
Cc1cc(C)cc(NC(=O)/C(C#N)=C/c2cn(CC(=O)NCc3ccco3)c3ccccc23)c1	-14.6	10.6	?	7.3	-23.1%	14.9%	24.4%
Cc1ccc2c(c1)c(C)c(C)n2CC(O)Cn1nc(C)cc1C (stereo not given)	10.5	-0.2	?	2.6	16.6%	-11.6%	8.0%
O=C(Nc1cc(N2CCOCC2)ncn1)NC1(C(F)(F)F)Oc2ccc(Cl)cc2O1 (stereo not given)	nt	-4.3	nt	-1.5	?	nt	nt
C[C@@H]1CN([C@H](C)CO)S(=O)(=O)c2ccc(-c3cccc(C#N)c3)cc2O[C@H]1CN(C)C(=O)Nc1cc(F)ccc1F	-12.7	nt	0.0%	nt	nt	nt	-58.5%[inhibitor]
CCOC(=O)N1CCC(NC(=O)CN(c2ccc(C(C)C)cc2)S(=O)(=O)c2c(C)nn(C)c2C)CC1	16.1	1.9	-1.4%	-0.5	8.9%	-0.1%	14.0%
CCCN1C2CCCC1CC(NC(=O)c1cccc(Cl)c1)C2 (stereo not given)	-9.8	-12.0	-1.6%	-0.7	13.4%	1.7%	18.8%[15.4 µM]
Cc1ccc(C)c(S(=O)(=O)NCc2ccc(C(=O)N3CCN(C)CC3)cc2)c1	3.3	3.5	1.3%	1.6	3.6%	1.7%	-0.8%
Cc1cc(C)c(C)c(OCC(=O)N2CCN(c3ccccn3)CC2)c1	-1.3	0.9	?	nt	10.0%	-2.4%	10.5%
O=C(CN1CCN(S(=O)(=O)c2ccc(Br)s2)CC1)NC1CCCCC1	2.1	nt	0.6%	nt	nt	6.6%	-14.1%
COc1ccc(S(=O)(=O)Nc2ccc(O)c3ccccc23)cc1	-7.6	-22.3	0.8%	1.6	-3.8%	-6.4%	26.8%
N#CC1(NC(=O)COC(=O)CSc2ccc(F)cc2)CCCCC1	19.3	-3.2	1.5%	nt	nt	12.5%	-21.8%
C/C(=N\Nc1nc(C)cc(-c2ccccc2)n1)c1ccccc1	-1.6	-9.6	-0.3%	-1.0	12.1%	-9.9%	-11.4%[15.4 µM]
O=C(/C=C/c1ccc(F)cc1)Nc1cc(S(=O)(=O)N2CCOCC2)ccc1N1CCOCC1	6.9	nt	-3.0%	nt	nt	nt	-73.5%[inhibitor]
O=C(CSc1nnc(Cc2ccccc2)n1Cc1ccccc1)NCc1ccco1	-9.4	-0.8	0.7%	2.1	-21.3%	-3.6%	-0.3%
O=C(Nc1cccnc1)c1ccc(COCC(F)(F)F)cc1	-11.5	-10.8	-6.6%	0.7	4.8%	3.4%	-11.9%
Cc1nc(NNC(=O)c2ccccc2)cc(-c2ccccc2)n1	-6.6	0.3	1.0%	1.3	-4.7%	5.9%	0.8%
Cc1c(NC(=O)CSc2nnc(C(C)N(C)C)n2-c2ccccc2)c(=O)n(-c2ccccc2)n1C (stereo not given)	35.7	nt	-1.0%	nt	nt	10.3%	-62.0%[inhibitor]
O=C(CSc1cccs1)Nc1ccc2ccccc2c1	-4.8	-12.2	-0.3%	1.6	-5.8%	?	-3.3%
CCN(CC(=O)NCc1ccc(F)cc1)c1ccc(S(C)(=O)=O)cc1[N+](=O)[O-]	-2.3	?	nt	0.5	7.5%	-6.9%	1.9%[15.4 µM]
CC(=O)NCC(=O)OCC(=O)c1ccccc1	3.5	29.7	1.0%	-1.2	14.7%	-16.0%	-16.7%
O=C(CCCOc1ccccc1)N1CCN(c2ccccc2)CC1	45.5	-9.6	0.9%	5.0	6.6%	-6.6%	-5.0%
Cc1ccc(-n2nc(C(=O)N3CCOCC3)cc2-c2ccc(Cl)cc2)cc1	-0.4	0.9	-0.3%	-0.4	-2.4%	-24.6%	-7.8%
Cc1coc2c1c(C)cc1oc(=O)c(Cc3ccccc3)c(C)c12	24.3	2.2	?	4.2	6.1%	0.6%	-6.9%
COCCn1c(SCC(=O)Nc2cccc(C(=O)OC)c2)nc2ccccc2c1=O	-9.7	10.8	-3.6%	2.9	14.4%	-12.7%	-11.3%
CC1(C)S[C@@H]2[C@H](NC(=O)[C@H](N)c3ccccc3)C(=O)N2[C@H]1C(=O)O	-2.7&0.9	7.9&7.2	-1.6%&-27.4%	0.8&-4.0&10.2	-9.8%&-25.3%&-8.0%	-7.8%&-0.5%	nt
CC(O)c1ccc(-n2cnnn2)cc1 (stereo not given)	-12.2	1.5	0.3%	3.7	12.8%	9.1%	-57.0%[inhibitor]
COc1ccc(-c2nc(SC(CC(=O)NCCN3CCOCC3)c3cccs3)n[nH]2)cc1 (stereo not given)	14.5	-12.7	nt	4.3	13.2%	9.6%	4.7%[15.4 µM]
Cc1cc(C(C)(C)C)ccc1OCC(=O)N/N=C\c1c(C)n(C)n(-c2ccccc2)c1=O	24.3	-9.0	nt	nt	5.2%	-1.3%	-11.9%
O=C(c1ccc(Br)o1)N1CCC(c2nc3ccccc3[nH]2)CC1	-1.9	5.0	-4.2%	nt	nt	-4.2%	23.1%
CCOc1ccc(OCC(=O)Nc2ccc(OC)cc2[N+](=O)[O-])cc1	29.2	7.4	nt	1.6	-4.0%	-8.9%	-27.0%[15.4 µM]
CCOC(=O)c1cc2c(=O)n3ccccc3nc2n(Cc2ccco2)c1=NC(=O)c1ccccc1OCC	-5.0	-61.6	nt	9.1	44.7µM*	-9.1%	10.5%[15.4 µM]
Cc1ccccc1NC(=O)COC(=O)c1cccnc1	-13.8	-12.0	0.8%	-1.3	19.1%	6.8%	?
COC(=O)c1ccccc1NC(=O)CN1C(=O)NC2(CCCCCCC2)C1=O	3.6	-1.3	-14.6%	nt	nt	4.8%	6.3%
Cc1ccc(C(C)C)cc1OCC(=O)Nc1ccc(N2CCCCC2)cc1	4.2	11.7	-2.7%	nt	nt	-6.6%	1.3%
CCOc1cccc2sc(N(CCN(C)C)C(=O)c3ccc(Br)s3)nc12	21.8	-13.9	nt	1.8	12.5%	6.4%	?
CC(C)CCN(C(=S)Nc1cccc(C(F)(F)F)c1)C(C)c1ccccn1 (stereo not given)	25.2	-22.5	1.4%	-1.6	-7.2%	-26.7%	0.5%
COc1cccc(S(=O)(=O)N(C)C[C@H]2Oc3ncc(Br)cc3C(=O)N([C@H](C)CO)C[C@H]2C)c1	31.4	nt	0.7%	nt	nt	nt	-119.0%[inhibitor]
C/C(=N/NC(=O)c1ccc(Cl)cc1Cl)c1cccnc1	1.2	-10.6	1.0%	1.8	11.4%	1.0%	-4.5%
COc1cccc(CNC(=O)Cc2csc(NC(=O)Nc3ccccc3OC)n2)c1	21.0	1.9	2.6%	nt	nt	-5.5%	-60.0%[inhibitor]
CSc1ccc(CNC(=O)C2CCC(=O)N(CC3CCCCC3)C2)cc1 (stereo not given)	-2.6	nt	-0.4%	nt	nt	nt	-21.1%
CS(=O)(=O)N(CC(=O)N1CCOCC1)c1ccc2c(c1)OCO2	3.6	3.1	-0.2%	2.0	15.0%	4.0%	4.6%
CC1=C(C(=O)Nc2cc(C(=O)N3CCN(c4ccc(Cl)cc4)CC3)ccc2C)SCCO1	-1.4	nt	-2.6%	nt	nt	nt	-37.8%
O=C(O)CSc1nc2c(c(C(F)(F)F)n1)CCCC2	1.5	25.1&-11.9	-0.7%	2.4&-3.4	7.7%&14.3%	-13.1%	28.6%
CCn1cc(/C=C(\NC(=O)c2ccccc2Cl)C(=O)N2CCN(C)CC2)c2ccccc21	-4.4	8.3	nt	1.6	18.3%	-3.6%	2.0%
COc1ccc(-c2nnc(N(C)C(=O)C3CCCO3)s2)cc1 (stereo not given)	-0.2	21.2	-3.9%	3.5	-7.5%	2.9%	-25.7%
COc1ccc(C(CC(=O)O)NC(=O)c2cc3cc(Br)ccc3oc2=O)cc1OC (stereo not given)	0.1	-21.5	nt	4.6	-0.7%	-9.5%	-2.2%[15.4 µM]
CCCCCCCCCCNC(=O)C(=O)Nc1ccccn1	12.3	16.3	1.6%	-1.3	5.5%	12.2%	-15.0%
COc1ccc(N2C(=O)CC(N3CCN(c4cccc(Cl)c4)CC3)C2=O)cc1 (stereo not given)	-20.8	17.0	-3.4%	1.7	5.0%	-1.0%	1.1%
CCOc1ncccc1C(=O)Nc1cccc(S(=O)(=O)NC2=NCCC2)c1	-4.5	0.1	-1.1%	nt	nt	1.8%	-45.6%[inhibitor]
COCC(C)n1c(SCC(=O)N(C)C2CCS(=O)(=O)C2)nc2ccccc2c1=O (stereo not given)	-25.9	-2.2	0.1%	-1.1	15.0%	-3.7%	0.8%[15.4 µM]
Cc1cccc(C)c1NS(=O)(=O)c1cc2c3c(c1)CC(=O)N3CCC2	-9.4	2.9	0.8%	nt	8.1%	-0.6%	25.3%
